gsp agonist = qHTS for Agonist of gsp, the Etiologic Mutation Responsible for Fibrous Dysplasia/McCune-Albright Syndrome: qHTS | 340,000 compounds, 0.13% hits | gsp mutant cells, cAMP HTRF, 30 min; control for the full effect not named in the record | AID 624287, 2012 | Potency, µM (series often up to 76.9 µM), for the others: at the top dose activation (cAMP increase), usual class: activators; active = well fitted activation curve with a large enough effect; inconclusive = small, poorly fitted or top-dose-only effect, or another doubt; inactive = no such curve, though single readings can be large or run the other way; cell line not stated here;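 note: phosphodiesterase inhibitor Ro 20-1724 added with compounds to block cAMP breakdown; potency is the fitted concentration of half-maximal effect; nearly all actives have a fitted effect of over 60% in size; about a fifth of the inactives were tested at one dose only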
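Cells in DMEM/10% FBS with G418 were pretreated with compounds in DMSO plus […] (300 uM stock) for 30 min at 37C. cAMP was measured by HTRF (cAMP-d2 plus anti-cAMP antibody-K) after 30 min at room temperature.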
ClpP mod = qHTS Assay for Activators of ClpP | ATP-dependent Clp protease proteolytic subunit (Bacillus subtilis (strain 168)), P80244 | purified B. subtilis ClpP, FRET peptide cleavage, 20 min | Potency, µM (series often up to 57.5 µM), for inactives: at the top dose activity change, negative = active | 340,000 compounds, 1.9% hits; active = well fitted falling curve with a large enough effect; inconclusive = small, poorly fitted or top-dose-only effect; inactive = no such curve, though single readings can be large or run the other way; note: potency is the fitted concentration of half-maximal effect; the source files actives as falling curves though it sought activators and does not explain the sign; nearly all actives have a fitted effect of over 65% in size; many hits overshoot -100%
Target sequence (P80244 whole entry, looked up): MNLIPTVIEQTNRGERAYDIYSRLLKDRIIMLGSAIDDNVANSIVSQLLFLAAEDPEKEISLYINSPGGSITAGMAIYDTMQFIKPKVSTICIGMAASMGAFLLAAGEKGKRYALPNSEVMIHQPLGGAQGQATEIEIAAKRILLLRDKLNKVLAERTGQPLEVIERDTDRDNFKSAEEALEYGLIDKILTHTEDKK
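FRET quenching reversal measured ClpP activation: 10 microg/mL B. subtilis ClpP at pH 8 with the FRET-FV decapeptide, read at 430 nm after 320 nm excitation. The 20-min minus 0-min signal was scaled between DMSO/no-enzyme wells and ADEP (5.8 microM final).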
Menin-MLL FL inh = qHTS Assay for Inhibitors Targeting the Menin-MLL Interaction in MLL Related Leukemias: Competition With Fluorescein Labeled MLL-derived Peptide. Fluorescence polarization, fluorescein-MLL peptide displacement from menin. FP activity change, % at 61.4 µM. 290,000 tested, under 10 active. AID 1766, 2009; inconclusive = falling polarisation curve, or a change in total fluorescence; inactive = total fluorescence flat and polarisation flat or rising; no compound was filed as active; the % refers to the polarisation; negative = inhibition;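 note: % of control where 0% means no effect; inhibitors lower the polarisation; unlabelled MLL peptide was the positive control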
gsp antag = qHTS for Antagonists of gsp, the Etiologic Mutation Responsible for Fibrous Dysplasia/McCune-Albright Syndrome: qHTS; gsp-mutant cells, cAMP HTRF, 30 min; control for the full effect not named in the record; Potency, µM (highest dose often 76.9 µM), for inactives: top-dose activity change, negative = inhibition, actives largely listed as inhibitors; 340,000 compounds, 0.4% hits; AID 624288, 2012; active = falling curve of any shape with a large fitted effect; inconclusive = falling curve, mostly with a smaller effect; inactive = flat or rising curve; cell line not stated here;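 note: intracellular cAMP measured with PDE inhibitor Ro 20-1724 present during compound exposure; potency is the fitted concentration of half-maximal effect; % is set by controls: 0 for no effect and ±100 for the full control effect; nearly all actives have a fitted effect of over 65% in size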
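HTRF cAMP read-out (cAMP-d2 plus anti-cAMP antibody-K in lysis buffer, 30 min RT). Before lysis, cells are exposed to compounds with […] for 30 min at 37C in DPBS containing Ca/Mg, BSA and Tween 20.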
CtBP-E1A blk = qHTS Assay for Inhibitors of the CtBP/E1A Interaction; CtBP / adenovirus E1A interaction (AlphaScreen); AlphaScreen GST-E1A/His-CtBP binding, 1536-well; hits give low values; control for the full effect not named in the record; activity change, % (concentration not given with the values); 340,000 compounds, 0.49% hits; AID 651724, 2012; in the data active means activity change below about -65%; inconclusive means about -30% to -65%; inactive means above about -30%; note: % is set by controls: 0 for no effect and ±100 for the full control effect
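GST-E1A and His-tagged CtBP (125 nM each as 5X stock) were preincubated with pin-transferred compound for 2 h at 37 °C in the dark, then glutathione donor and nickel acceptor beads were added for 1 h before AlphaScreen reading.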
TRPV1 potentiator = HTS Assay for Compounds that Act as Potentiators of the Vanilloid Receptor 1; 320,000 compounds, 0.02% hits; TRPV1-expressing cells, Fluo-8 calcium influx, capsaicin EC20 potentiation; host cell line not named in the record; control for the full effect not named in the record; potentiation, % at 8.33 µM; active means potentiation above 80%; inconclusive means 30% to 80%; inactive means below 30%; note: 0% is about no effect
Target sequence (Q8NER1 whole entry, looked up): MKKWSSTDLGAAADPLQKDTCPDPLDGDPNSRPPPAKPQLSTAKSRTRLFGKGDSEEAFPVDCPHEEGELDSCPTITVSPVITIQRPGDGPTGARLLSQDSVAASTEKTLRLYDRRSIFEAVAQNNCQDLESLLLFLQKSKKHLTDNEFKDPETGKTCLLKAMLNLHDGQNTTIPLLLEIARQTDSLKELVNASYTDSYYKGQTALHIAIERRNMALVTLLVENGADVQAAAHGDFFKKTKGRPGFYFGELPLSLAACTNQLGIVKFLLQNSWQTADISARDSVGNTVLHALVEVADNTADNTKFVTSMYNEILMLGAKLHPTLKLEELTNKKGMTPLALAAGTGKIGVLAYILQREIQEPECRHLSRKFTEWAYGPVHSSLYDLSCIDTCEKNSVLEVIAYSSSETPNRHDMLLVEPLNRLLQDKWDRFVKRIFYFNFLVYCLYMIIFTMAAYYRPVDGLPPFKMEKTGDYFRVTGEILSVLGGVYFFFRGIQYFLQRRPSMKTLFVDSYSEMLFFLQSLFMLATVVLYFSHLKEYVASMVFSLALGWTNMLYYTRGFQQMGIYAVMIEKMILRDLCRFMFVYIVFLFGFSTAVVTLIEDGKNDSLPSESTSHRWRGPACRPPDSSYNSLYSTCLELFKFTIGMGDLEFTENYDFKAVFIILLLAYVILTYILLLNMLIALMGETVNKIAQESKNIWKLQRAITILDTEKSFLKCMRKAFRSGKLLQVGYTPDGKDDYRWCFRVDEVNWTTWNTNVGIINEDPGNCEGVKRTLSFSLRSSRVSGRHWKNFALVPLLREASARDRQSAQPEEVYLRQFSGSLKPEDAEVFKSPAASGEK
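Cells expressing TRPV1 were dye-loaded with Fluo-8 and read kinetically: 10 s baseline, 3 min after compound (agonist portion), then 2 min after EC20 capsaicin (allosteric enhancer portion). Calcium-bound dye fluorescence at 480/520 nm.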
Sfp inh = qHTS Assay for Inhibitors of Bacillus subtilis Sfp phosphopantetheinyl transferase (PPTase); Potency, µM, for the others: max response, negative = inhibition, most hits filed as inhibitors; 310,000 compounds, 3.5% hits; Biochemical Sfp PPTase activity, qHTS; 4'-phosphopantetheinyl transferase ffp (Bacillus subtilis), Q9F4F7; AID 1490, 2009; active = well fitted inhibition curve with a large enough effect; inconclusive = small, poorly fitted or top-dose-only effect, or another doubt; inactive = no such curve, though single readings can be large or run the other way;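 note: the enzyme is Sfp with the accession as filed and its product quenches rhodamine fluorescence; potency is the fitted concentration of half-maximal effect; 0% = enzyme reaction without inhibitor and -100% = no enzyme wells; top concentration of the series not given in the record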
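Sfp 15 nM + cpd, 15 min RT; start w/ rhodamine-CoA 5 uM, BHQ-2-YbbR 12.5 uM (final); 50 mM Hepes pH 7.6, 10 mM MgCl2, 0.01% NP-40, 0.01% BSA; read 525/598 nm at 0 and 30 min.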
* marks the source's active call; other numbers are inactive results; ? = inconclusive; nt = no result given; & = joins results of further samples; [ ] = another dose, or the depositor's remark.

SMILES	gsp agonist	ClpP mod	Menin-MLL FL inh	gsp antag	CtBP-E1A blk	TRPV1 potentiator	Sfp inh
CCC(=O)Nc1sc2c(c1C(N)=O)CCN(C(C)=O)C2	-1%	-16%	4.2	5%	1	25	12%
CC(C)S(=O)(=O)c1csc(C(=O)NN)c1Cl	-7%[15.4 µM]	-0.9%	1.7	-1%	-8	26	?
COc1ccc(C)cc1S(=O)(=O)N1CCN(C(=O)c2ncoc2-c2ccccc2C)CC1	-16%	nt	-2.3	-10%	2	1	5%
Cc1ccc(-c2csc3ncnc(SCc4ccc(C(=O)O)cc4)c23)cc1	5%	nt	3.7	-5%	2	-4	50µM*
CCOC(=O)Nc1ccc2nc(-c3cscn3)[nH]c2c1	4%	4.5%	nt	nt	-5	nt	nt
COc1ccc(S(N)(=O)=O)cc1N(C)S(=O)(=O)c1ccccc1	-4%[15.4 µM]	nt	-1.8	2%	0	7	7%
CCN1CCN(c2nc(Nc3cccc(F)c3)nc(N)c2[N+](=O)[O-])CC1	-6%[15.4 µM]	0.3%	-0.5	10%	-17	-3	13%
CCOC(=O)c1cc(S(=O)(=O)N2CCc3ccccc32)cn1C	5%	0.0%	nt	-7%	nt	19	8%
Cc1ccc(C(=O)Nc2ccc(O)cc2C(=O)O)cc1	9%	-1.4%	3.4	-22%	-10	-23	7%
COCCn1c(Cc2ccccc2)nnc1SCC(=O)N1CCOCC1	13%	-0.8%	-0.4	-1%	4	30	12%
Cc1noc(C)c1S(=O)(=O)NCC(=O)O	-2%	39%	4.5	3%	-8	-13	-10%
COc1ccc(C(=O)N2c3ccccc3C=CC2C#N)cc1 (configuration not stated)	6%[15.4 µM]	nt	0.6	1%	-4	-22	3%
Clc1ccccc1-c1ccc(/C=N/n2cnnc2)o1	?	-22%	1.8	10%	-6	1	5%
COc1ccc(-c2cc(CCC(=O)N3CCN(c4cc(C)ccc4C)CC3)[nH]n2)cc1	nt	0.2%	nt	-28%	-9	nt	nt
CCC1CCCCN1CC(=O)c1c(C)[nH]c2ccc(OC)cc12 (configuration not stated)	-1%[15.4 µM]	0.4%	4.4	7%	8	2	5%
O=C(CN1C(=O)NC(c2ccccc2)(c2ccccc2)C1=O)NCC(=O)Nc1ccc(F)cc1	-6%	20%	nt	2%	-2	7	nt
CCOc1ccc(S(=O)(=O)N2CCN(C(=O)Cc3n[nH]c(=O)c4ccccc34)CC2)cc1	-2%[15.4 µM]	0.5%	nt	-6%	0	9	nt
N#C/C(=C\c1ccc(-c2cccc(Cl)c2)o1)C(=O)Nc1cccc2cccnc12	2%	0.2%	-2.9	22%	0	23	-1%
CCN1C(=O)C2(C(C#N)=C(N)Oc3n[nH]c(COC)c32)c2ccccc21 (configuration not stated)	-12%	-1.6%	-3.1	3%	5	25	5%
Cc1nc(N2CCC(C)CC2)c2oc3ccccc3c2n1	-79%[inhibitor]	-19%	-0.1	-28%	4	-5	-24%
O=S(=O)(c1cccc(-c2nc3n(n2)Cc2ccccc2-3)c1)N1CCCC1	2%	-0.1%	2.2	0%	-4	-6	-22%
C=CCn1c(SCC(=O)Nc2cccc(S(N)(=O)=O)c2)nnc1C1CCCCC1	30%	1.3%	nt	5%	5	0	nt
O=[N+]([O-])c1ccccc1S(=O)(=O)Nc1ccn(Cc2c(F)cccc2Cl)n1	-8%[15.4 µM]	-1.1%	-0.3	-5%	0	8	6%
Cc1cccc(NC(=S)NCCc2ccc(F)cc2)c1C	-140%[inhibitor]	2.0%	0.6	1%	nt	-10	17%
CCOc1ccccc1NC(=O)COC(=O)C(CC)c1ccccc1 (configuration not stated)	25%	-0.6%	0.1	10µM*	nt	-13	-3%
Cc1sc(NC(=O)c2ccco2)nc1-c1ccccc1	-1%	-10%	1.4	-16%	-5	-7	-1%
Cc1noc(C)c1C(=O)NC1CCCc2ccccc21 (configuration not stated)	-36%[inhibitor]	0.2%	0.7	10%	4	10	14%
C=CCOC(=O)CC(NC(=O)c1ccccc1)c1ccccc1 (configuration not stated)	22%	-0.3%	6.9	-4%	-1	-2	21%
CC(=O)CSc1ncnc2scc(-c3ccc(F)cc3)c12	?	nt	-0.1	8%	1	3	6%
COc1ccc(-c2nc(NC(=O)c3cc(C(C)(C)C)nn3C)sc2C)cc1	-49%[inhibitor]	?	-4.1	-12%	-16	6	?
c1ccc(Cn2nnc3ccccc32)cc1	14%[15.4 µM]	-23%	-0.6	12%	1	?	23%
O=C(CNC(=O)c1ccc(S(=O)(=O)N2CCCCC2)cc1)N/N=C/c1ccco1	-46%[inhibitor]	1.2%	5.9	-12%	-1	8	2%
O=[N+]([O-])c1ccc(C=NNC(=S)NN=Cc2ccc([N+](=O)[O-])cc2)cc1	-46%[inhibitor]	nt	nt	-24%	-2	nt	nt
N#CC1=C(N)NC(SCC(=O)O)=C(C#N)C12CCCC2	?	-5.2%	?	2%	2	5	56µM*
O=C(Nc1ccc(-c2csc(-c3ccccc3)n2)cc1)c1ccccc1	11%	31%	1.6	3%	9	-9	6%
CC1(C)[C@@H](O)CC[C@]2(C)[C@H]3C(=O)C=C4[C@@H]5C[C@@](C)(C(=O)O)CC[C@]5(C)CC[C@@]4(C)[C@]3(C)CC[C@@H]12	nt	1.0%	-1.8&0.4	-1%	-1	2	-7%&4%
Cc1nn(Cc2c(F)c(F)c(F)c(F)c2F)c(C)c1NC(=O)c1ccc(COc2ccccc2Cl)cc1	-17%	3.4%	0.2	17%	0	-10	-4%
Cc1ccccc1CS(=O)(=O)Cc1ccc(C(=O)NCCc2ccccc2)o1	0%	-0.6%&0.1%	0.3	-12%	1	-13	12%
Cc1ccc(NC(=O)NC(=O)CN2CCN(c3ccc(O)cc3)CC2)c(C)c1	?	nt	0.8	-2%	-8	9	50µM*
Oc1ccc(-c2cn3ccccc3n2)cc1	25%	4.0%	-1.0	13%	nt	5	5%

One compound at a time, as listed above. Order of values: gsp agonist | ClpP mod | Menin-MLL FL inh | gsp antag | CtBP-E1A blk | TRPV1 potentiator | Sfp inh
Listed for `Cc1ccccc1CS(=O)(=O)Cc1ccc(C(=O)NCCc2ccccc2)o1` → 0% | -0.6%&0.1% | 0.3 | -12% | 1 | -13 | 12%
Listed for `c1ccc(Cn2nnc3ccccc32)cc1` → 14%[15.4 µM] | -23% | -0.6 | 12% | 1 | ? | 23%

The listing continues:
SMILES	gsp agonist	ClpP mod	Menin-MLL FL inh	gsp antag	CtBP-E1A blk	TRPV1 potentiator	Sfp inh
CCOC(=O)C1CCCN(C(=O)c2cc3ccccc3oc2=O)C1 (configuration not stated)	10%	0.0%	-1.5	5%	nt	-8	4%
Cc1ccccc1C(=O)Nc1cc(-c2cc(C(C)(C)C)oc2C)nn1C	-1%[15.4 µM]	nt	-1.8	-9%	-8	-2	1%
CCCCNc1c(NC(C)=O)c(=O)oc2ccccc12	5%[15.4 µM]	nt	-1.0	-3%	4	-1	2%
Cc1cccc(NC(=O)c2cccc([N+](=O)[O-])c2O)c1C	5%	-1.6%	nt	-27%	8	nt	nt
CCc1c(C(=O)NNC(=S)NCC2CCCO2)csc1C (configuration not stated)	9%	-1.4%	2.4	7%	2	9	7%
CC(C)(C)c1ccc(OCC(=O)NNC(=O)Cc2cccs2)cc1	-4%	-2.2%	-0.3	1%	-2	-2	16%
CCOC(=O)c1oc2ccccc2c1NC(=O)c1cc(OC)cc(OC)c1	22%	159%	0.1	1%	8	7	12%
COC(=O)c1ccc(OCC(=O)c2ccc(C)c(C)c2)cc1	-10%	0.5%	7.8	-20%	66	-2	0%
Cc1cc(NC(=O)CSc2ccccn2)cc(NC(=O)CSc2ccccn2)c1	4%[15.4 µM]	0.4%	-1.5	-33%	0	16	16%
CCCCC(=O)NCCNc1nc2c(c(=O)n(C)c(=O)n2C)n1Cc1ccc(F)cc1	?	0.8%	6.3	20%	26	5	3%
Cc1cccc(C)c1NC(=O)CNC(=O)CN1C(=O)NC2(CCc3ccccc32)C1=O (configuration not stated)	13%	-0.2%	nt	-3%	6	12	nt
Cc1c(CCC(=O)O)c(=O)oc2c(C)c3occ(-c4ccc(Br)cc4)c3cc12	18%[15.4 µM]	-0.7%	4.0	-15%	-84*	3	-21%
COc1ccccc1-c1cn(C(C)(C)C)nc1C	?	nt	1.2	6%	-5	4	9%
Cc1cc(C)cc(NC(=S)N2CCC(NC(=O)c3ccco3)CC2)c1	-18%	nt	-2.7	11%	3	17	4%
CC1(C)CC[C@@]23CC[C@]4(C)[C@@](OC2=O)(C3C1)[C@H]1O[C@H]1C1[C@@]2(C)CC[C@H](O)C(C)(C)C2CC[C@]14C (some centres not stated)	nt	1.5%	nt	-3%	1	nt	nt
NC(=O)C1CCN(C(=O)c2ccc(Cl)c(S(=O)(=O)NCc3ccco3)c2)CC1	-3%	-1.8%	nt	-10%	-3	1	nt
CCC(c1nnc(SC(C)C(=O)NC2CC2)n1-c1ccc(OC)cc1)N(C)C (configuration not stated)	9%	-1.1%	nt	4%	-4	-15	nt
O=C(CCN1CCCC1)Nc1ccccc1	-17%	0.4%	1.2	3%	4	1	27%
Cc1cc(C(=O)NCC23CC4CC(CC(C4)C2)C3)c(C)o1	nt	nt	0.4	nt	nt	-5	-1%
C=CCn1c(=O)c2ccccc2n2c(SCC(=O)NCc3cccs3)nnc12	0%	-1.6%	2.3	-6%	-2	22	-12%
Cn1c(=O)oc2cc(S(=O)(=O)NCc3ccc(F)cc3)ccc21	28%	0.6%	nt	14%	13	9	19%
CC(C)[C@H](NC(=O)C1CCN(S(=O)(=O)c2ccccc2)CC1)C(=O)NCc1ccccn1	2%	-1.4%	nt	1%	4	19	9%
